Screening data from PubChem.
H5N1 antiviral: MDCK cell protection from H5N1 avian flu; cytopathic effect, luminescence, 72 h; active compounds read high; no value below 0 was filed and about half of the inactive calls have no number; reference of the scale not given here; inhibition, % at 50 µM; actives 0.07% (n = 96,000); AID 740, 2007; in the data active means inhibition above about 25%
Numbers without * were called inactive; i = inactive.

SMILES	H5N1 antiviral
CCCCc1n[nH]c2c1C(=O)CC(C)(C)C2	i
CC(=O)c1cc2c(cc1NC(=O)c1cc3nc(C(C)C)cc(C(F)(F)F)n3n1)OCO2	i
O=C(Nc1ccccc1Cl)c1cc(S(=O)(=O)N2CCCC(C(=O)O)C2)ccc1F (stereo unspecified)	1.1
COc1ccc(C(=O)Nc2ccc(F)cc2F)cc1OC	2.0
CCSc1nnc(NC(=O)c2ccc(C)cc2)s1	0.7
C/C(=N\Nc1nc2c(s1)CCCC2)c1ccccc1	i
Cc1cc(C)c2nc3s/c(=C/c4ccc5c(c4)n(C)c(=O)n5C)c(=O)n3c2c1	0.8
CN(C)CCNC(=O)c1c(O)c2c([nH]c1=O)CCCC2	i
CCOc1ccc(NC(=O)CCNS(=O)(=O)c2cccs2)cc1	0.1
COCCOc1nc2c(c(=O)n(C)c(=O)n2C)n1CCc1ccccc1	2.0
Nc1nc(NCc2ccccc2)nc(Nc2ccc(F)cc2)c1[N+](=O)[O-]	1.2
Cc1ccc(NC(=O)CN2CC(C)SC2=NC2CCCCC2)cc1 (stereo unspecified)	i
Cc1ccc(-c2ccc(/C=N/N3C(=O)C4C5C=CC(C6CC56)C4C3=O)o2)c([N+](=O)[O-])c1 (stereo unspecified)	i
CCN(CC)CCNC1=NCCn2c1cc1cc(OC)ccc12	i
OCCNc1nc(Nc2ccccc2)nc(Nc2ccccc2)n1	0.3
N/C(COc1ccc(Cl)cc1)=N\NS(=O)(=O)c1ccccc1	0.1
O=C(O)CCCC(=O)N1CCN(c2cccc(Cl)c2)CC1	0.7
CCOC(=O)CSc1cc(C(F)(F)F)nc(-c2ccccn2)n1	1.1
COCCN(C(=O)Cc1cccs1)c1nnc(-c2cccnc2)s1	1.0
CNC(=O)c1ccc(-n2nc(C)cc2-c2ccccc2)cc1	i
COc1ccccc1-c1cc(C(=O)Nc2cccnc2)no1	i
CCCC(=N)C1=C(O)CC(CC(C)SCC)CC1=O (stereo unspecified)	0.7
CCCC(=O)Nc1cccc(NC(=O)c2ccc(C)c([N+](=O)[O-])c2)c1	i
Cc1ccc(C(=O)OC2CCN(c3ccc([N+](=O)[O-])cc3)CC2)cc1	i
COC(=O)c1cnn2c(C)c(Cc3cccc(F)c3)c(C)nc12	0.4
Cc1ccc(NC(=O)N2CCCC2C(=O)NCCc2ccccc2)cc1 (stereo unspecified)	i
O=C(Nc1ccc(N2CCOCC2)cc1)c1cccc(S(=O)(=O)N2CCCCC2)c1	i
Cc1c(Cl)cccc1NC(=O)CC1SCCNC1=O (stereo unspecified)	1.6
CCCn1nc(-c2nnc(-c3ccc(C)c(C)c3)o2)c2ccccc2c1=O	0.2
CCCCC1(C)OC(=O)C(=Cc2ccc(N(C)C)cc2)C(=O)O1 (stereo unspecified)	0.2
O=c1/c(=C/c2ccc(CNS(=O)(=O)c3ccccc3)o2)sc2n1CCN=2	2.3
CN(C)C(=O)N1CCN(C(=O)c2ccccc2Sc2ccccc2C#N)CC1	1.6
CCOc1cc(/C=N/NC(N)=O)cc(Br)c1OCC(=O)Nc1ccccc1C	1.1
COC(=O)CCCCC(=O)C1C(=O)CC(C)(C)C(C(=O)OC)C1=O (stereo unspecified)	0.8
CCOC(=O)Cn1c2ccc(OC)cc2c2nc3ccccc3nc21	2.1
COc1cc2cc(C(c3nnnn3Cc3ccc(F)cc3)N3CCCCCC3)c(=O)[nH]c2cc1OC (stereo unspecified)	i
COC(=O)CCCCCC(CCC(=O)OC)NC(C)=O (stereo unspecified)	0.1
COc1ccc(S(=O)(=O)NNC(=O)c2cc3c4ccccc4n(C)c3s2)cc1	i
COc1ccc(NC(=O)C23CC4CC(C2)CC(n2cnc(Br)n2)(C4)C3)c(C)c1	i
Cc1cccc(OCC(=O)N2CCC(c3ccccc3)C2)c1 (stereo unspecified)	2.2
CC(=O)Nc1ccc2c(c1)OCCOCCOc1cc(NC(C)=O)ccc1OCCOCCOCCO2	0.6
COCCNC(=S)NNC(=O)c1ccco1	0.2
CC(=O)NCCn1c(SCC(=O)NCC2CCCO2)nc2ccccc2c1=O (stereo unspecified)	1.2
CN(C)CCCNC(=O)c1cc(S(=O)(=O)N2CCOCC2)ccc1F	0.7
COc1ccc(S(=O)(=O)N2CCC(C(=O)NCC3CCCO3)CC2)cc1 (stereo unspecified)	0.6
CCCCOc1ccc(C(=O)Nc2ccc(N3CCN(C(=O)C(C)C)CC3)cc2)cc1	1.9
O=C(NCCCn1ccnc1)c1cccc(S(=O)(=O)N2CCCCCC2)c1	1.5
CC1CCCC(NC(=O)C2CCCN2S(=O)(=O)c2cccc3nsnc23)C1C (stereo unspecified)	0.8
COc1ccc(CNC(=O)COC(=O)c2c(-c3c(F)cccc3Cl)noc2C)cc1OC	0.1
O=C1CCc2cc(S(=O)(=O)NC(Cc3ccccc3)C(=O)NCCC3=CCCCC3)ccc2N1 (stereo unspecified)	i

Next compounds.
SMILES	H5N1 antiviral
Cc1ccc(Cl)cc1NC(=O)N[C@@H](C)C(=O)O	i
Cc1cc(N2CCN(c3ccccc3)CC2)n2cc(-c3ccccc3)nc2n1	1.2
CC(=O)Nc1cc(S(=O)(=O)Nc2ccc(C)cc2)c(C)cc1C	1.9
Cc1cc(=O)[nH]c(-n2[nH]c3c(c2=O)CCCC3)n1	0.9
Cc1nnc(SCC(=O)Nc2ncc3c(n2)CCCC3=O)s1	1.7
CC(C)=CC(=O)Nc1ccccc1Br	i
Cn1c(CCN2CCCCC2)nc2cc(NS(=O)(=O)c3ccc(F)cc3)ccc21	0.4
COc1ccc2c(c1)c1c(n2C(C)=O)C(OC(C)=O)=NCC1	i
CCOC(=O)c1c(NC(=O)c2ccc(N3CCOCC3)c([N+](=O)[O-])c2)sc(C)c1C	i
Cc1cc(OC(=O)c2cccs2)ccc1C(C)C	0.1
CCOc1ccc(S(=O)(=O)NCC2CCCO2)c2cccnc12 (stereo unspecified)	0.5
CCCCOC(=O)c1[nH]c(C)c(C(=O)OC)c1C	1.3
CCOC(=O)CSc1nc2c(sc3ccccc32)c(=O)n1CCCN1CCOCC1	i
Cc1nc(N2CCN(C(=O)COc3ccccc3)CC2)c2c(C)c(C)sc2n1	i
O=C1c2ccccc2CCC12N=NCC2c1ccc(Cl)cc1 (stereo unspecified)	1.3
Cc1cc(NC(=O)CSc2nnc3c(C)cc4cc(C)c(C)cc4n23)no1	0.9
O=C(O)c1c[nH]ccc1=O	i
COCCn1c(=S)[nH]c2cc(OC)c(OC)cc2c1=O	0.8
CC(NC(=O)c1ccc2c(c1)OCCO2)C(=O)O (stereo unspecified)	0.2
CCOC(=O)C1=C(C)NC(=O)NC1c1ccc(OCC(=O)Nc2ccccc2)c(OC)c1 (stereo unspecified)	0.4
COc1ccccc1C(=O)NC(C)c1ccccc1 (stereo unspecified)	0.9
COc1cc(NC(C)C(=O)N2CC(C)OC(C)C2)cc(OC)c1 (stereo unspecified)	0.2
CC12CCC(C(=O)N(NC(=O)c3cc(Cl)ccc3O)C1=O)C2(C)C (stereo unspecified)	2.0
Cc1ccc(Cn2ncc3c(N4CCN(c5ccccc5C)CC4)ncnc32)cc1	i
O=C(CSc1ccc2nnc(-c3ccncc3)n2n1)Nc1ccc2c(c1)OCCO2	6.5
CCN(CC)C(=O)CSc1ncnc2c(-c3cccs3)nsc12	1.0
Cc1cc(=O)n(C)c(=O)n1CCCCCN1CCCC1	0.2
COc1ccc(CCNC(=O)CN2CCN(c3cccc(C(F)(F)F)c3)CC2)cc1	0.5
CN(C)CCCNC1CS(=O)(=O)CC1O (stereo unspecified)	0.1
O=C(O)CC(NS(=O)(=O)c1cccc2nsnc12)c1ccc(F)cc1 (stereo unspecified)	0.3
COc1ccc(N(CC(=O)N2CCCC(C)C2)S(=O)(=O)c2c(C)nn(C)c2C)cc1 (stereo unspecified)	1.1
CSc1c(-c2ccccc2)nc2ccccc2c1C(=O)O	i
Cc1cc(S(=O)(=O)NC2CCCCC2)ccc1OCC(=O)NCc1cccnc1	0.9
CC1(C)Cc2nc3sc4c(=O)[nH]cnc4c3cc2CS1	1.6
Cc1[nH]cnc1CSCCN	0.5
COc1ccccc1NC(=O)c1oc2ccc(C)cc2c1C	i
O=C1C2C(C(=O)N1CC1CCCO1)C1C=CC2C12CC2 (stereo unspecified)	i
CCCCCC(=O)N(CN1C(=O)CCC1=O)c1ccccc1	2.4
COc1ccc(NC(=O)C(C)Sc2ccccc2)cc1 (stereo unspecified)	i
Cc1ccccc1OCC(=O)NCC(=O)OCC(=O)c1ccc2ccccc2c1	i

Continued.
molecule,H5N1 antiviral
O=C(CN1CCOCC1)Nc1c2c(nc3ccccc13)N(Cc1ccccc1)CC2,i
Cn1c(CNC(=O)C(C)(C)C)nc2ccccc21,0.3
COc1ccc(C(=O)Nc2cc3c(cc2Cl)OCCCO3)cc1,5.7
CCC(NC(=O)c1ccccc1NC(=O)c1ccc(C)cc1)C(=O)O (stereo unspecified),i
CCOC(=O)N1CCC(NC(=O)C2=C(C)C(=O)OC23CCC(C)CC3)CC1 (stereo unspecified),i
Cc1nn(C)cc1C1C2=C(CC(C)(C)CC2=O)N(c2ccccc2)C2=C1C(=O)CC(C)(C)C2,0.7
Cc1cccc(NC(=O)Cn2cnc3c(cnn3-c3ccc(F)cc3)c2=O)c1C,i
CS(=O)(=O)Nc1ccc(C(=O)NCC2CCCO2)cc1 (stereo unspecified),0.1
COCCn1c(N2CCN(c3ccc(OC)cc3)CC2)nc2c1c(=O)n(C)c(=O)n2C,0.8
O=C(CSc1nc(-c2ccncc2)nn1CC(=O)N1CCCCC1)NC1CCCC1,2.1
O=S(=O)(c1cc(Cl)ccc1Cl)N1CCCCC1,0.6
O=C(O)C1C2C=CC(C2)C1C(=O)NC1CCS(=O)(=O)C1 (stereo unspecified),i
COc1ccc(N2CCN(c3nc(NC(C)(C)C)nc(N4CCCCC4)n3)CC2)cc1,i
CCCCOc1ccc(-c2cc(C(=O)NNC(=S)NCC)c3ccccc3n2)cc1,i
N#Cc1cc(-c2ccccc2)nnc1Oc1ccccc1,i
Cc1ccccc1-n1c(C)cc(/C=N/NC(=O)c2ccncc2)c1C,2.1
CCOc1cc(C#N)c(NC(=O)CSc2nnnn2-c2ccc(OC)cc2)cc1OCC,i
O=C(NCc1ccco1)c1cc(S(=O)(=O)N2CCOCC2)c(Cl)cc1Cl,1.0
COc1ccc(OP(=O)(Nc2ccccc2)Nc2ccccc2)cc1,1.7
CCOC(=O)c1cc2sccc2n1CC(=O)c1ccc2c(c1)OCCO2,i
CN(Cc1ccccc1)C(=O)Cn1nc(C(F)(F)F)c2c1CCC2,1.6
CC(C)(C)C(=O)C(Cc1ccccc1)n1cncn1 (stereo unspecified),0.1
COc1ccccc1N1CCN(CCCOc2ccc(F)cc2)CC1,i
CN(CC(=O)N1CCCC1)S(=O)(=O)c1ccc(Cl)cc1,i
CC(=O)NC1C(=O)N(C)c2ccc(Br)cc21 (stereo unspecified),i
Oc1cc2ccccc2cc1-c1nnc2n1-c1ccccc1SC2,0.8
CC(=O)c1cc(CC=C(C)C)c(O)cc1O,i
Cc1cc(-c2cccc([N+](=O)[O-])c2)nc2ccc3ccccc3c12,i
CCOc1ccccc1C1C(C(=O)OC)=C(N)OC2=C1C(=O)CCC2 (stereo unspecified),i
Cc1ccc(CN(c2ccc(C(=O)NCc3ccccn3)cc2)S(C)(=O)=O)cc1,0.6
Cc1cccc(C)c1NC(=O)NC1CC2CCC(C1)N2Cc1cccs1 (stereo unspecified),i
CCOC(=O)c1ccc(NC(=O)c2ccc(NC(=O)c3ccccc3)cc2)cc1,i
CC(C)CCN1CC(C(=O)NCc2ccc(F)cc2)CC1=O (stereo unspecified),0.8
CCCNC(=O)C(CC)NS(=O)(=O)c1ccc(OC)cc1 (stereo unspecified),i
CC(=O)Nc1ccc(S(=O)(=O)N2CCSC2c2ccc(Cl)cc2)cc1 (stereo unspecified),i
CCCN1C(=O)/C(=C/c2ccc(C)o2)SC1=Nc1ccc(OCC)cc1,i
Cc1cc(=O)[nH]c(S/C=C/c2ccccc2)n1,i
O=C1NN(c2ccccc2)C(=O)/C1=C\c1cccn1-c1ccc(Cl)c([N+](=O)[O-])c1,i

By substructure: the compounds so far containing a Cl atom.
molecule,H5N1 antiviral
O=C(Nc1ccccc1Cl)c1cc(S(=O)(=O)N2CCCC(C(=O)O)C2)ccc1F (stereo unspecified),1.1
N/C(COc1ccc(Cl)cc1)=N\NS(=O)(=O)c1ccccc1,0.1
O=C(O)CCCC(=O)N1CCN(c2cccc(Cl)c2)CC1,0.7
Cc1c(Cl)cccc1NC(=O)CC1SCCNC1=O (stereo unspecified),1.6
COc1ccc(CNC(=O)COC(=O)c2c(-c3c(F)cccc3Cl)noc2C)cc1OC,0.1
Cc1ccc(Cl)cc1NC(=O)N[C@@H](C)C(=O)O,i
O=C1c2ccccc2CCC12N=NCC2c1ccc(Cl)cc1 (stereo unspecified),1.3
CC12CCC(C(=O)N(NC(=O)c3cc(Cl)ccc3O)C1=O)C2(C)C (stereo unspecified),2.0
COc1ccc(C(=O)Nc2cc3c(cc2Cl)OCCCO3)cc1,5.7
O=S(=O)(c1cc(Cl)ccc1Cl)N1CCCCC1,0.6
O=C(NCc1ccco1)c1cc(S(=O)(=O)N2CCOCC2)c(Cl)cc1Cl,1.0
CN(CC(=O)N1CCCC1)S(=O)(=O)c1ccc(Cl)cc1,i
CC(=O)Nc1ccc(S(=O)(=O)N2CCSC2c2ccc(Cl)cc2)cc1 (stereo unspecified),i
O=C1NN(c2ccccc2)C(=O)/C1=C\c1cccn1-c1ccc(Cl)c([N+](=O)[O-])c1,i

The list is partial; the hit share may differ from the screen's.
